High-throughput results deposited in PubChem by ICCB-Longwood Screening Facility, Harvard Medical School.
RVFV N-RNA FP: inhibitors of RVFV nucleoprotein–RNA binding, primary screen, biochemical, fluorescence polarization; P21700; RVFV N-RNA binding; stronger effect = lower value; % bound, % (concentration not given with the values); 20,000 tested, 0.1% active;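 active = between 0 and 58% in either replicate with normal brightness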;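 note: 100 nL library stock added to about 12 µL; 100% = protein and probe without compound and 0% = probe alone; numbers are from one replicate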
Target sequence (P21700 whole entry, looked up): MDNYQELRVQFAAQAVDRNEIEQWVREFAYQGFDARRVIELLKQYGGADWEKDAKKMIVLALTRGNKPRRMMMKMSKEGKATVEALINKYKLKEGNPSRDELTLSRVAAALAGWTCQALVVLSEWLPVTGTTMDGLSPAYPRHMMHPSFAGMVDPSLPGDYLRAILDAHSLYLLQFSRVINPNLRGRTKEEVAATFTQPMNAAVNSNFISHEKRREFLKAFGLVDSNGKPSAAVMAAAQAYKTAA
* = called active by the depositor; & = joins results of further samples.

[1] O=C(c1cn(-c2ccccc2)nc1-c1cccs1)N1CCOCC1
  RVFV N-RNA FP = 90.1

[2] O=C(c1cc(O)c(O)c([N+](=O)[O-])c1)c1ccccc1F
  RVFV N-RNA FP = 107.0

[3] CCC(=O)Nc1cccc(-n2c(C)nc3ccccc3c2=O)c1
  RVFV N-RNA FP = 86.5

[4] CC1SC(c2ccccc2)NC1=O (centres undefined)
  RVFV N-RNA FP = 87.2

[5] Cc1cccc(NC(=O)c2ccccc2-c2nc(-c3ccccc3)no2)c1
  RVFV N-RNA FP = 89.8

[6] O=C(c1ccc2c(c1)OCO2)N(c1ccc(Br)cc1)C1C=CS(=O)(=O)C1 (centres undefined)
  RVFV N-RNA FP = 95.4

[7] N#Cc1c(Cl)ncc2c1N(Cc1ccccc1)CC2
  RVFV N-RNA FP = 111.6

[8] CSc1ccc(S(=O)(=O)NCCC2=CCCCC2)cc1
  RVFV N-RNA FP = 93.7

[9] Cc1nccn1CC1CCc2c(c3ccccc3n2C)C1=O (centres undefined)
  RVFV N-RNA FP = 93.6&95.1&94.2

[10] CC(C)(C)NC(=O)Nc1ccccc1C(N)=O
  RVFV N-RNA FP = 96.9

[11] CC(C)N=c1cc2n(-c3ccc(Cl)cc3)c3ccccc3nc-2cc1Nc1ccc(Cl)cc1
  RVFV N-RNA FP = 100.0

[12] S=C(NC1CCCCC1)N1CCC(c2cnc[nH]2)CC1
  RVFV N-RNA FP = 95.9

[13] CN1CCC(NC(=O)Cc2c(F)cccc2Cl)CC1
  RVFV N-RNA FP = 107.2

[14] O=C(Nc1ccccc1)C1CCCN1/C=C/C(=O)C(F)(F)F (centres undefined)
  RVFV N-RNA FP = 95.3

[15] CN1C(=O)Cc2cc(S(N)(=O)=O)ccc21
  RVFV N-RNA FP = 89.3

[16] CC1CCC(N2CCN(c3ncccn3)CC2)C1 (centres undefined)
  RVFV N-RNA FP = 92.1

[17] COC(=O)c1ccccc1NC(=S)NC(C)=O
  RVFV N-RNA FP = 88.5

[18] CNC(=O)c1ccc(OCC(C)C)cc1
  RVFV N-RNA FP = 91.3

[19] Cc1cc(C)c(C#N)c(SCC(O)CSc2ccc(Cl)cc2)n1 (centres undefined)
  RVFV N-RNA FP = 99.6

[20] CCCc1c(C)nc2ccccc2c1SCC(=O)O
  RVFV N-RNA FP = 93.2

[21] O=c1cc(O)c2cccc3c4ccccc4n1c23
  RVFV N-RNA FP = 100.9

[22] O=C(CCc1ccccc1)NC1CCCCC1
  RVFV N-RNA FP = 96.2

[23] O=C(/C=C/c1ccco1)NC(=S)Nc1ccc2ccccc2c1
  RVFV N-RNA FP = 93.9

[24] N#CC(C#N)=C(N)/C(C#N)=C/c1ccc(O)cc1
  RVFV N-RNA FP = 106.6&100.3

[25] C/C=C/C(=O)Nc1cccc(C(F)(F)F)c1
  RVFV N-RNA FP = 99.9

Screen by screen, from the results shown.
Nos. 19 to 23 in RVFV N-RNA FP read 99.6, 93.2, 100.9, 96.2, 93.9

Back to the main list; the 2 compounds before the break are reprinted first.
[24] N#CC(C#N)=C(N)/C(C#N)=C/c1ccc(O)cc1
  RVFV N-RNA FP = 106.6&100.3

[25] C/C=C/C(=O)Nc1cccc(C(F)(F)F)c1
  RVFV N-RNA FP = 99.9

[26] O=C(O)CSCC(=O)c1ccccc1
  RVFV N-RNA FP = 95.1

[27] NS(=O)(=O)c1cc2c(cc1Cl)NC=NS2(=O)=O
  RVFV N-RNA FP = 98.9&94.8

[28] CC(C)CN(CC(C)C)S(=O)(=O)c1ccc(N)cc1
  RVFV N-RNA FP = 97.2

[29] CCC(C)C(=O)Nc1ccc(OC)cc1 (centres undefined)
  RVFV N-RNA FP = 102.6

6 structures out of the list, sorted by number of heavy atoms, rising.
[26] O=C(O)CSCC(=O)c1ccccc1
  RVFV N-RNA FP = 95.1

[29] CCC(C)C(=O)Nc1ccc(OC)cc1 (centres undefined)
  RVFV N-RNA FP = 102.6

[25] C/C=C/C(=O)Nc1cccc(C(F)(F)F)c1
  RVFV N-RNA FP = 99.9

[21] O=c1cc(O)c2cccc3c4ccccc4n1c23
  RVFV N-RNA FP = 100.9

[28] CC(C)CN(CC(C)C)S(=O)(=O)c1ccc(N)cc1
  RVFV N-RNA FP = 97.2

[23] O=C(/C=C/c1ccco1)NC(=S)Nc1ccc2ccccc2c1
  RVFV N-RNA FP = 93.9

Not all compounds are listed. The share of hits here may be higher or lower than overall.
